High-throughput results as filed in PubChem BioAssay.
Vaccinia mCherry = inhibitors of vaccinia virus infection (mCherry reporter signal); Vaccinia virus mCherry reporter infection, fluorescence; about a quarter of the inactives have no number; Potency, µM (highest dose often 36.5 µM), inactives show top-dose activity change, negative = inhibition, usual class: inhibitors; 310,000 tested, 0.63% active; AID 720579; active = well fitted inhibition curve with a large enough effect; inconclusive = small, poorly fitted or top-dose-only effect; inactive = no such curve, though single readings can be large or run the other way; tested in A549 cells; also: nearly all actives have a fitted effect of over 35% in size; inactives centre near -10
VACV Venus inh = vaccinia inhibition (Venus reporter). Vaccinia virus Venus reporter expression, fluorescence. Potency, µM (doses to about 36.5 µM), inactives show top-dose activity change, negative = inhibition, usual class: inhibitors. AID 720580. 330,000 tested, 0.46% active; active means well fitted inhibition curve with a large enough effect; inconclusive means small, poorly fitted or top-dose-only effect; inactive means no such curve, though single readings can be large or run the other way; tested in A549 cells; also: nearly all actives have a fitted effect of over 30% in size; inactives centre near -10
Numbers without * were called inactive; i = inactive; ? = inconclusive; . = no result given; & = joins results of further samples; [ ] = another dose, or the depositor's remark. % is scaled to controls: 0 for no effect and ±100 for the full control effect; potency is read from the fitted curve at half-maximal effect. Outcome played no part in choosing rows (roughly 0.82% active in at least one column).

SMILES	Vaccinia mCherry	VACV Venus inh
Cc1ccc2oc(-c3ccc(C)c(NC(=O)COc4ccc(Cl)cc4C)c3)nc2c1	-23%	-25%
O=C(NCc1cccs1)C1CCN(S(=O)(=O)c2ccc(Br)s2)CC1	-15%	-16%
CCOC(=O)c1ccc(OCC2c3cc(OC)c(OC)cc3CCN2C(=O)Cc2ccc(F)cc2)cc1 (configuration not stated)	-2%	-7%
CCOc1ccccc1N(C)C(=O)Cn1ncc2c([nH]c3ccc(C)cc32)c1=O	i[7.34 µM]	-14%[7.34 µM]
CCC(=O)Nc1ccc(F)c(Cl)c1	-3%[1.46 µM]	4%
Cc1nc2c([nH]1)C1(CCN(Cc3ccccc3)CC1)C(C#N)=C(N)O2	.	-12%
Cc1cccc(Cn2c(SCc3ccc(C(=O)NCc4cccs4)cc3)nc3cccnc32)c1	-24%	-14%
CCOc1ccc(NC(=O)CSc2nc3nc(C)cc(C)n3n2)cc1	i	-24%
O=C1CC[C@@H]2CC3(C[C@@H]4CCN1[C@H]24)Nc1cc([N+](=O)[O-])ccc1NC3=NC1CCCCC1 (some centres not stated)	?	-19%
CCCCCC(CC(=O)O)C(=O)O (configuration not stated)	i	-29%
O=C(c1ccc2c3c(cccc13)CC2)C1CCCN(Cc2ncc[nH]2)C1 (configuration not stated)	-18%	-13%
CCOC(=O)c1cccc(NS(=O)(=O)c2cc3c(cc2C)NC(=O)CO3)c1	-10%	-5%
O=C(Nc1ccc2c(c1)OCO2)C1CC(c2ccccc2Cl)=NO1 (configuration not stated)	i	-6%
COc1cccc(NC(=O)c2oc3ccc(S(=O)(=O)N4CCC5(CC4)OCCO5)cc3c2C)c1	-13%	-25%
Cc1ccc(N2NC(=O)/C(=C\c3cc4c(cc3[N+](=O)[O-])OCO4)C2=O)cc1C	i	-10%
CN(C(=O)CCc1nnc(CCCCc2ccccc2)o1)C1CC(C)(C)NC(C)(C)C1	-9%	-2%
CC(C)c1ccc(C2=NC(c3ccncc3)=Nc3ccc(F)cc3N2)cc1	-10%	2%
CCCC(CCC)c1nnc(NC(=O)c2ccco2)s1	i	-4%
CC(C)(C)c1ccc(NC(=O)c2cc(C3CCCN(S(=O)(=O)c4cccc5cccnc45)C3)on2)cc1 (configuration not stated)	-13%	-15%
CCCNC(=O)c1ccc2c(c1)ncn2-c1ccc(C)cc1C	-10%	-7%
N#CCCn1cc(C(=O)CN2C(=O)NC3(CCCCCC3)C2=O)c2ccccc21	-19%	-25%
CCOC(=O)C(C)Sc1nnc(NC(=O)c2cccc([N+](=O)[O-])c2C)s1 (configuration not stated)	-7%	2%
c1ccc(C[n+]2ccccc2)cc1	-5%	-20%
O=C(COc1ccc(Cl)cc1[N+](=O)[O-])N1CCCCC1	i	-1%
CN(C)CCCO/N=C(\c1ccccc1)c1ccncc1	-12%	1%
Cn1c2ccccc2c2c(C(=O)N3CCN(c4ccc(F)cc4)CC3)cn(C3CCCC3)c(=O)c21	?	?
Cc1ccc(-n2ncc3c(=O)n(CC(=O)N4CCCCCC4)cnc32)cc1	.	-16%
CCOC(=O)c1c(C)sc(-c2c(-c3cccc(Cl)c3)[nH]c3c2c(=O)n(C)c(=O)n3C)c1O	-15%	257%[activator]
N=c1c(C(=O)NCc2ccccc2)cc2c(=O)n3ccccc3nc2n1Cc1ccco1	-28%	-19%
NNC(=O)CC(=O)NC1(Cc2ccc(O)cc2)CCCCC1	-15%	-11%
CCCCn1nnnc1C(c1ccccc1)N1CCN(c2cc(C)ccc2C)CC1 (configuration not stated)	-20%	-16%
O=C(Cn1ncc2c3ccccc3n(Cc3ccccc3)c2c1=O)Nc1ccccc1C(F)(F)F	3%	4%
CC1CC(C)CN(c2ccc(S(=O)(=O)N3CCOCC3)cc2)C1 (configuration not stated)	-1%	-8%
O=C(O)c1cc(-c2cc(C(=O)O)c3ccccc3n2)ccc1O	-8%	-14%
CC(=O)Nc1ccc(-c2cc(-c3ccccc3)nc(-c3ccccc3)n2)cc1	-22%	-15%
O=C(COC(=O)CN1C(=O)COc2ccccc21)NC1CCCCC1	-2%	10%

Entries of single compounds from above. Order of screens: Vaccinia mCherry	VACV Venus inh
CN(C)CCCO/N=C(\c1ccccc1)c1ccncc1 across the screens: -12%	1%
CCCCn1nnnc1C(c1ccccc1)N1CCN(c2cc(C)ccc2C)CC1 (configuration not stated) across the screens: -20%	-16%
Cn1c2ccccc2c2c(C(=O)N3CCN(c4ccc(F)cc4)CC3)cn(C3CCCC3)c(=O)c21 across the screens: ?	?
Cc1ccc(-n2ncc3c(=O)n(CC(=O)N4CCCCCC4)cnc32)cc1 across the screens: .	-16%
CCOC(=O)c1c(C)sc(-c2c(-c3cccc(Cl)c3)[nH]c3c2c(=O)n(C)c(=O)n3C)c1O across the screens: -15%	257%[activator]

The results go on.
SMILES	Vaccinia mCherry	VACV Venus inh
CCCc1cc(=O)oc2c(C)c(OCC(=O)N3CCC(C(=O)O)CC3)ccc12	-3%	7%
CCCCN(C(=O)C1CC1)C1CCS(=O)(=O)C1 (configuration not stated)	-11%	-5%
CSc1cccc(N=C2C(=O)Nc3ccccc32)c1	?	-10%
CCc1ccc(C(=O)COC(=O)c2cccs2)cc1	-11%	-8%
C[C@@H]1CN([C@@H](C)CO)C(=O)CCCn2nncc2CO[C@H]1CN(C)C(=O)Nc1ccc(N2CCCCC2)cc1	i	-3%
CCOc1ccc(Cn2nnc3c(=O)[nH]c(C4CCN(C(=O)c5ccccc5)CC4)nc32)cc1	12%	-7%
Cc1ccc(-n2ncc3c(NCCCc4ccccc4)ncnc32)cc1C	-1%	-12%
COc1ccc([C@H]2N[C@]3(CCCN(Cc4ccc(F)cc4)C3=O)[C@H]3C(=O)N(C)C(=O)[C@@H]23)cc1	i	-19%
COC(=O)C1CCN(Cc2ccc3c(c2)CN(C(=O)c2cc(-c4ccc(C)o4)[nH]n2)CCO3)CC1	6%	7%
Cc1ccc2cc3c(NC(=O)c4ccco4)nn(CC(C)C)c3nc2c1	.	-12%
CCN(CC)C(=O)CSc1nc2cc3c(cc2c(=O)n1CCCC(=O)NCCc1ccc(OC)c(OC)c1)OCO3	-22%	-11%
CCCCN(C)C(=O)CCCc1c[nH]c2ccccc12	i	-20%
Cc1nc2scc(-c3cccs3)c2c(=O)o1	-6%	4%
CCCOC(=O)/C(C)=N\NC(=O)c1ccco1	i	-9%
COC(=O)c1ccccc1NC(=O)Cn1c(=O)n(CCCC(=O)NCCc2ccc(OC)c(OC)c2)c(=O)c2ccccc21	-5%	-7%
COc1ccc(CNC(=O)C2CCN(S(=O)(=O)c3ccc4c(c3)CC(C)N4C(C)=O)CC2)cc1 (configuration not stated)	-18%	-7%
C=C1SC(=Nc2ccccc2Cl)N(C(=O)c2sc3ccccc3c2Cl)C1(C)C	-23%	-9%
C[C@H](CO)N1C[C@H](C)[C@@H](CN(C)CC2CCOCC2)Oc2ncc(Br)cc2C1=O	-3%	-6%
CCOc1ccc(C(=O)NCC(=O)OC(C)C(=O)NCc2ccco2)cc1OCC (configuration not stated)	.	1%
O=C(O)/C=C\C(=O)Nc1ccc(Oc2ccc(Br)cc2)cc1	?	-16%
COc1ccc(C2=NCN(c3ccc(C)cc3)C(=S)N2)cc1	-5%	-26%
COc1ccc(CNC(=O)NC2CCCCC2)cc1	0%	3%
Cc1ccc(-n2c(C)nnc2SC(C)C(=O)N2CCCC2)cc1 (configuration not stated)	i	-8%
COc1ccc(CCNC(=O)CN2C(=O)COc3ccc(S(=O)(=O)N4CCCCCC4)cc32)cc1OC	-9%	5%
COc1cc(NC(=O)Nc2nnc(N3CCCCCC3)s2)cc(OC)c1	-9%	-15%
COc1ccccc1-n1cnc2cc(NC(C)=O)ccc21	2%	2%
Cc1c(C)[n+](=O)c2c(n1[O-])CCCCC2	-9%	-5%
COc1ccccc1CNC(=O)COC(=O)c1cc2ccccc2o1	-12%	-5%
CC(C)CC(NC(=O)C(NC(=O)C1CCC(=O)N1C(=O)OCc1ccccc1)C(C)C)C(=O)N1CCCC1C(N)=O (configuration not stated)	0%	0%
COC(=O)C1=NN(c2ccccc2OC)C2C(=O)N(c3ccccc3OC)C(=O)C12 (configuration not stated)	-15%	-12%
COc1cccc(-c2cnc3c(NC(C)=O)cc(-c4cccc(C(=O)N(C)C)c4)cn23)c1	-4%	0%
COc1ccc(C)cc1NC(=O)ON=C1CCCCC1	45%[activator]	-5%
Nc1[nH]c(C(=O)c2ccccc2)c(-c2cccnc2)c1C(=O)NC1CCCCC1	0%	-6%
CC(C)n1c(O)c(N=NC(=O)C2COc3ccccc3O2)c2ccccc21 (configuration not stated)	?	-23%
O=C(CN1C(=O)NC2(CCCC2)C1=O)NCc1cccc(Cl)c1	-3%	-3%
Cc1ccc(Cl)c(OCC(=O)Nc2ccc3c(c2)OCCO3)c1	-13%	-6%
COc1cc(S(=O)(=O)n2cnc(C)c2)ccc1Cl	-7%	2%
COC(=O)C1=CCCCC(O)=C1C(=O)OC	-12%	-6%
CCCc1nc2c3ccccc3ccn2c1Cc1ccccc1C(F)(F)F	i	-1%
Cc1nc2c(C(=O)NCc3ccccc3)cnn2c(C)c1Cc1ccc(F)cc1	-24%	-21%
COc1cccc2c1OC1(CCN(C(C)C)CC1)N1N=C(c3cccnc3)CC21 (configuration not stated)	-8%	-9%
COC(=O)[C@]12CCCCC=C1N(Cc1ccco1)C(=O)[C@H](CC(=O)NCc1cccc3ccccc13)C2	13%	1%
CC(C)C/C(=N/O)c1c[nH]c2ccccc12	.	-14%
O=C(Nc1cc(Cl)ccc1Oc1ccccc1)c1ccccc1F	-2%	-5%
O=C1C2C3CC4C5C3C1C5C1(SCCS1)C42 (configuration not stated)	10%	-4%
CCn1c(=O)c(-c2nc3ccccc3[nH]2)c(O)c2ccccc21	-21%	-22%
O=Cc1cccc(OCc2cn(CC(=O)c3ccc(O)cc3)nn2)c1	i	-14%
CC(=O)N/C(=C\c1ccc(F)cc1)C(=O)OCc1ccccc1	-5%	-10%

Looked up above:
CC(C)C/C(=N/O)c1c[nH]c2ccccc12 in VACV Venus inh = -14%
CC(=O)N/C(=C\c1ccc(F)cc1)C(=O)OCc1ccccc1 in VACV Venus inh = -10%
CCn1c(=O)c(-c2nc3ccccc3[nH]2)c(O)c2ccccc21 in VACV Venus inh = -22%

New compounds follow.
SMILES	Vaccinia mCherry	VACV Venus inh
Cc1cc(NC(=O)CCC(=O)N(CCc2ccccc2)C(C(=O)NC2CCCC2)c2ccco2)no1 (configuration not stated)	-14%	-6%
CCCC(=O)Nc1nnc(SCC(=O)Nc2ccc3c(c2)OCCO3)s1	-5%	10%
Oc1[nH]c2ccccc2c1/C=N/N1CCCCC1	-24%	-1%
Cc1ccc(OCC(=O)N2CCN(S(=O)(=O)c3ccccc3[N+](=O)[O-])CC2)cc1	-21%	-10%
c1cncc(OC2CCN(Cc3ccc4c(c3)CN(Cc3ccc5c(c3)OCO5)CCO4)CC2)c1	-7%	-8%
CC(C)(O)/C=C1/Oc2ccccc2C1N1CCCCC1 (configuration not stated)	.	-10%
COCCCn1c(SCC(=O)O)nc2cc(OC)c(OC)cc2c1=N	i	-10%
CCn1c(=O)c(=O)[nH]c2c(=O)oc3ccc(S(=O)(=O)Nc4ccccc4)cc3c21	-13%	2%
O=C(O)/C(=C1\OC(=O)c2ccccc21)c1ccccc1	.	-5%
CC(=O)Nc1sc2c(c1C#N)CCN(Cc1ccccc1)C2	-14%	0%
CCc1ccccc1NC(=O)c1cccc(NC(=O)/C=C/c2ccco2)c1	-4%	-26%
Cc1cccc(C)c1N(CC(=O)NC1CCCCC1)C(=O)c1csnn1	i	-7%

Two entries drawn at random from those above:
SMILES	Vaccinia mCherry	VACV Venus inh
CCc1ccccc1NC(=O)c1cccc(NC(=O)/C=C/c2ccco2)c1	-4%	-26%
CCCC(=O)Nc1nnc(SCC(=O)Nc2ccc3c(c2)OCCO3)s1	-5%	10%

The list goes on.
SMILES	Vaccinia mCherry	VACV Venus inh
COC(=O)c1ccc2c(=O)n(Cc3ccc(C(=O)NC(C)C)cc3)c(=S)[nH]c2c1	-11%	-14%
CCC(=O)N(Cc1ccc(S(N)(=O)=O)cc1)C1CC(=O)N(c2ccccc2)C1=O (configuration not stated)	-8%	2%
NS(=O)(=O)c1ccc(CCNC(=O)CCCCCn2c(=S)[nH]c3ccc(Br)cc3c2=O)cc1	-13%	-3%
CN(C)S(=O)(=O)N(CC(=O)NCCSCc1ccccc1)c1ccccc1	-3%&-7%	-5%&-8%
O=C1C(=Cc2ccc(Cl)cc2)Cc2ccccc21	26%	16%
CCc1ccc(NC(=O)CSC2=C(C#N)C(c3ccc4c(c3)OCO4)CC(=O)N2)cc1 (configuration not stated)	-3%	-17%
C/C=C/CSc1nc2c(c(=O)[nH]c(=O)n2C)n1CCC	.	1%
CCOC(=O)NC(=O)/C(C#N)=C\Nc1ccc(Cl)cc1Cl	i	-4%
COC(=O)c1cc(Cl)ccc1NC(=O)CSc1ncc(S(=O)(=O)c2ccc(Br)cc2)c(=O)[nH]1	16%	11%
O=S(=O)(Cc1ccccc1)N1CCNCC1	i	-15%
Cc1cc(C)c(C#N)c(N2CCCC2)n1	-12%	-5%
CCOC(=O)N1CCN(c2ccc(Cl)cc2)CC1	-13%	-13%
CC1CCC(C(=O)NNC(=O)c2cc(-c3ccco3)[nH]n2)CC1 (configuration not stated)	-18%	-8%
Cc1c(CCC(=O)NCc2ccc(F)cc2)c(=O)oc2cc(O)ccc12	-14%	-13%
COc1ccc(CCN2CC(C(=O)OCc3ccccc3Cl)CC2=O)cc1OC (configuration not stated)	-3%	-3%
N=c1sccn1CC(=O)Nc1cccc2ccccc12	.	-22%
CCn1c(SC(C)C(=O)NC2CCCc3ccccc32)nnc1-c1cccs1 (configuration not stated)	-4%[1.46 µM]	-19%
CCN(CC)CCCNC(=O)c1oc2c(c1C)-c1nn(Cc3ccc(Cl)cc3)cc1CC2	-26%	-16%
